From PubChem BioAssay
MenB inh = M. tuberculosis MenB inhibitors, primary screen, biochemical, absorbance; 1,4-dihydroxy-2-naphthoyl-CoA synthase (Mycobacterium tuberculosis (strain ATCC 25618 / …; MenB enzyme assay, absorbance read-out; some hits fall short of the stated cut; inhibition, %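 (about 12 µg/mL by stock and volumes)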; hit rate 0.43% among 100,000; AID 540299, 2011;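 active = mean of two replicates above 30%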;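 note: 0% = no compound and 100% = wells with inactive enzyme; the first replicate is given; strong numbers were not always called active; inactives centre near -10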
Mtb MbtI inh = MbtI salicylate synthase inhibitors, primary screen, biochemical, fluorescence intensity; P9WFX0; purified MbtI enzyme, fluorescence intensity read-out; inhibition, %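 (about 17 µg/mL by stock and volumes)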; hit rate 0.89% among 100,000; AID 493033, 2011;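 active = above 50% in both replicates, above 80% if mildly self-fluorescent; inactive = the rest, strongly fluorescent compounds included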;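 note: 0% = mean of negative and 100% = mean of positive controls; one replicate is shown; some compounds called inactive have numbers as strong as hits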
Target sequence (P9WFX0 whole entry, looked up): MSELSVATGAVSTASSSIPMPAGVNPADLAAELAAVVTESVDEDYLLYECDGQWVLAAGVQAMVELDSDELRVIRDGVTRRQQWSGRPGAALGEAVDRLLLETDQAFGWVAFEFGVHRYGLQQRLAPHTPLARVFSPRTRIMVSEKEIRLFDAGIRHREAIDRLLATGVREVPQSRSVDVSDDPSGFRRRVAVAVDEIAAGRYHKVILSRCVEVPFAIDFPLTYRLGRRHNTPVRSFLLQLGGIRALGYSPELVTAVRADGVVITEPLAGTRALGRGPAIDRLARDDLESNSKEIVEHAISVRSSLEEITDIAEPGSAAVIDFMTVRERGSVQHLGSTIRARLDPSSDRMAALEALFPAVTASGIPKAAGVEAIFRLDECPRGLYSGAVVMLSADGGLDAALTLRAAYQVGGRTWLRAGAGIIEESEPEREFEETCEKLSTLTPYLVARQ
Polio RdRp inh = poliovirus RdRp elongation inhibitors, primary screen, biochemical, fluorescence polarization, total intensity; % elongation, % (compound at 16.7 µg/mL); hit rate 0.66% among 150,000; AID 588519, 2011; Genome polyprotein (Poliovirus type 1 (strain Mahoney)), P03300; poliovirus polymerase elongation; hits give low values; in the data active = % elongation below about 90%; note: some results filed as inactive read as strong as hits
Target sequence (P03300 1749-2209 limits assumed): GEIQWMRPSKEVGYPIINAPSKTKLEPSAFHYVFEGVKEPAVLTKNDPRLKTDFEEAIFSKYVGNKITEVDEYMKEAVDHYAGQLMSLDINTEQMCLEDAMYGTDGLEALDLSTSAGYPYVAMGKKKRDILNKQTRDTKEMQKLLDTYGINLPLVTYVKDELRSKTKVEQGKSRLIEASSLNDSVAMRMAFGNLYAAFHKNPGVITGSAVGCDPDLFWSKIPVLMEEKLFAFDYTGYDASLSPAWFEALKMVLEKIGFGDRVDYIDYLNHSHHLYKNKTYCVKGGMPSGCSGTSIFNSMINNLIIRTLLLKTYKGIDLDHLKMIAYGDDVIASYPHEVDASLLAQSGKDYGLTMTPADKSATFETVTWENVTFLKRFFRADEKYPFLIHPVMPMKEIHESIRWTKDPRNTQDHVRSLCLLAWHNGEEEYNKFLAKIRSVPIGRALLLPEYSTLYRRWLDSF
Polio RdRp inh intensity = second read-out of Polio RdRp inh, no call of its own (marks repeat the call); % elongation; measured here: total intensity read-out; formula for this scale not given here;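 total fluorescence in place of polarization; lower means less elongation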
* marks the source's active call; other numbers are inactive results; i = inactive; . = not tested or not shown; & = joins results of further samples.

Sample of the layout:
SMILES | MenB inh | Mtb MbtI inh | Polio RdRp inh | Polio RdRp inh intensity
Nc1ccc(Cn2cccn2)cc1 | 18 | 4 | 100 | 102
COc1ccccc1CNC(=O)c1cnc2ccc(S(=O)(=O)N3CCOCC3)cc2c1Cl | 9 | -228 | 100 | 97
O=C(O)CSc1ccc(S(=O)(=O)N2CCCC2)cn1 | 7 | 15 | . | .
N#Cc1ccc(C(=O)N(CC(=O)Nc2ccccc2C(F)(F)F)Cc2ccco2)cc1 | -15 | -4 | . | .

The whole of this part, from the start:
SMILES | MenB inh | Mtb MbtI inh | Polio RdRp inh | Polio RdRp inh intensity
Nc1ccc(Cn2cccn2)cc1 | 18 | 4 | 100 | 102
COc1ccccc1CNC(=O)c1cnc2ccc(S(=O)(=O)N3CCOCC3)cc2c1Cl | 9 | -228 | 100 | 97
O=C(O)CSc1ccc(S(=O)(=O)N2CCCC2)cn1 | 7 | 15 | . | .
N#Cc1ccc(C(=O)N(CC(=O)Nc2ccccc2C(F)(F)F)Cc2ccco2)cc1 | -15 | -4 | . | .
O=C(CSC(=S)N1CCCC1)Nc1ccccc1OC(F)F | -21 | 12 | . | .
O=C(Oc1ccc2ccccc2c1)c1ccccc1Cl | 0 | . | 102 | 105
CCCC(=O)Nc1ccccc1-c1nnc(SC)[nH]c1=O | 6 | 7 | 99 | 101
COc1ccccc1NC(=O)Nc1nnc(N2CC(C)CC(C)C2)s1 (configuration not stated) | -19 | -9 | 100 | 98
Cc1cnc(C(=O)Nc2cc(S(C)(=O)=O)ccc2Cl)cn1 | -33 | -4 | 103 | 99
COc1ccc(-c2csc(-c3cccs3)n2)c(OC)c1 | 5 | 35 | 113 | 106
CC(C)NCC(O)c1ccc(N)c(C#N)c1 (configuration not stated) | -13 | -55 | 103&100 | 99&97
COc1ccccc1CC(=O)N1CCN(c2ccc(C(F)(F)F)cn2)CC1 | 6 | 25 | 99 | 102
O=C(CC1CCCCC1)Nc1nc2ccccc2s1 | -4 | . | 108 | 109
CCc1oc2ccccc2c1C(=O)c1ccc(OC(C)=O)cc1 | -13 | . | 106 | 109
Cc1cc(=O)oc(C)c1C(=O)O | 2 | -6 | 100 | 101
Cc1cc(=O)[nH]c(C(C)C)n1 | . | -3 | 104 | 105
COc1cccc(-c2cc(C(=O)N3CCOCC3)on2)c1 | 0 | 0 | 100 | 98
CCCn1c2ccccc2c2cnn(CC(=O)Nc3ccccc3)c(=O)c21 | 0 | 23 | 103 | 98
CC(C)C1Oc2cc3oc(=O)ccc3cc2/C1=N\NC(N)=S (configuration not stated) | 3 | i | 104 | 101
N#CC(C#N)=Cc1cn(-c2ccccc2)nc1-c1ccccc1 | 13 | 13 | 102 | 103
CCN(CC(=O)Nc1ccc2c(c1)OCCO2)CC(=O)Nc1sccc1C#N | -34 | -7 | 101 | 120
Cc1noc(C)c1CSc1ccc2ccccc2n1 | -9 | 3 | 99 | 97
CN(C1CCCCC1)S(=O)(=O)c1ccc(CCN2C(=O)c3cccnc3C2=O)cc1 | -31 | -6 | 101 | 97
CCC(C(=O)N1CCN(S(C)(=O)=O)CC1)c1ccccc1 (configuration not stated) | 5 | -6 | 99 | 101
CCC(C(=O)N1CCN(C(=O)c2ccco2)CC1)n1nc(C)c2sc3ccccc3c2c1=O (configuration not stated) | 9 | 41 | 101 | 101
CCn1c(CCC(=O)Nc2ccnn2Cc2cccs2)nc2cc(S(=O)(=O)N(C)C)ccc21 | -27 | -4 | 105 | 132
COc1ccc2c(c1)c(C(=O)CNc1nc(C)cs1)c(C)n2C | -4 | -17 | 102 | 102
O=C(NCCSCc1ccc2nonc2c1)c1ccc(Cl)cc1Cl | -28 | -2 | 104 | 104
CC(C)Nc1nnc(SCc2cc(=O)n3ccsc3n2)s1 | 2 | 11 | 95 | 122
CCOc1ccc2nc(N3CCCC(C(=O)NC)C3)sc2c1 (configuration not stated) | 6 | -5 | 101 | 96
CC1(C)C(C(=O)Nc2nccs2)C1(C)C | 7 | . | 100 | 106
CO[C@@H]1C[C@@H](C[C@H]2CC[C@H](C)[C@H]([C@@H](C)C(=O)O)O2)O[C@]2(O[C@](C)([C@H]3CC[C@@](C)([C@@H]4O[C@@H]([C@H]5O[C@@](O)(CO)[C@H](C)C[C@@H]5C)C[C@@H]4C)O3)C[C@H]2C)[C@@H]1C | . | -6 | 104 | 98
CC(=O)N1CCc2cc(NC(=S)Nc3ccccc3Cl)ccc21 | 3 | -8 | 107 | 110
CC(NC(=O)Nc1ccc(F)cc1F)C1CCCO1 (configuration not stated) | 4 | -13 | 100 | 104
COc1ccc(NC(=O)C2CC(=O)NC3=C2C(=O)CCC3)cc1 (configuration not stated) | -4 | 13 | 101 | 102
CCN(CC(=O)Nc1ccc2c(c1)OCCO2)C(=O)c1ccc(CS(C)(=O)=O)cc1 | 2 | -2 | 107 | 108
CC(OC(=O)c1ccc2c(=O)n3c(nc2c1)CCCCC3)C(=O)N1CCCc2ccccc21 (configuration not stated) | 6 | 22 | 100 | 94
Cc1ccc(CNS(=O)(=O)c2ccc3oc(C(=O)O)c(C)c3c2)cc1 | -9 | -5 | 104 | 106
COc1ccccc1N1CCN(C(=S)Nc2ccc(S(=O)(=O)N3CCOCC3)cc2)CC1 | -12 | -1 | 99 | 101
O=C1CN(C(=O)c2ccco2)c2ccccc2N1 | -7 | 4 | 100 | 102
O=C(Cn1ncc2ccccc21)N1CCN(c2ccccc2)CC1 | -9 | . | 103 | 101
COc1ccc(Nc2nc(NCCN3CCOCC3)nc3c2cnn3C)cc1Cl | 12 | -19 | 102 | 106
CC(NC(=O)C(Cc1ccccc1)n1cccc1)c1ccccc1 (configuration not stated) | -6 | -14 | 100 | 109
COc1cccc(-c2cc3nc(-c4ccccc4)cc(N4CCC(O)CC4)n3n2)c1 | -27 | 90 | 106 | 102
CCOC(=O)Nc1ccc2c(c1)N(C(=O)CCN(CC)CC)c1ccccc1S2=O (configuration not stated) | -7 | 15 | 101 | 101
Cc1nc(Cl)c2sc(=S)n(-c3ccccc3)c2n1 | -20 | . | 98 | 92
CCOC(=O)C1=C(C)N(c2nonc2NC(C)=O)C(N)=C(C#N)C1c1ccc(Br)cc1 (configuration not stated) | -4 | . | 100 | 107
CC(Sc1ccc(S(=O)(=O)N2CCOCC2)cn1)C(N)=O (configuration not stated) | -14 | 8 | 103 | 105
Cc1ccc(-c2n[nH]c3c2C(c2ccc(C(C)C)cc2)NC3=O)cc1 (configuration not stated) | 9 | -2 | 98 | 103
O=C(NC1CCCCC1)c1ccc(Cl)cc1 | -38 | -8 | 103 | 103
Oc1ccc(C(=S)N2CCOCC2)cc1 | -7 | 52 | 101 | 102
Cc1oc(-c2ccc(Cl)cc2)nc1CN1CCC(C(=O)NC2CCCC2)CC1 | -19 | -3 | 103 | 108
CCc1nc2ccccc2n1CCCOc1ccc(Cl)cc1 | -37 | -5 | 104 | 106
COc1ccc(-c2nnc(SC(C)c3nnc(-c4cccs4)o3)o2)cc1 (configuration not stated) | -8 | -3 | 107 | 107
Nc1nc(SCC(=O)NCC2CCCO2)n[nH]1 (configuration not stated) | -13 | -12 | 104 | 107
CC(=O)Nc1cccc(OCC(=O)N2N=C(c3ccc(Cl)cc3)CC2c2ccco2)c1 (configuration not stated) | -25 | 29 | 102 | 103
COCCOC(=O)c1c(NC(=O)CNCc2ccco2)sc(C(N)=O)c1C | -6 | 36 | 126 | 162
Cc1ccc2c(CC(=O)NC3=NCCS3)coc2c1 | -4 | -6 | 102 | 97
CC(=O)NN1C(=O)/C(=C\c2ccc(I)o2)SC1=S | -160 | 18 | 103 | 115
C=CCNc1nc(OC)nc(OC)n1 | 9 | -2 | 99 | 99
(continued)
SMILES | MenB inh | Mtb MbtI inh | Polio RdRp inh | Polio RdRp inh intensity
CCN1/C(=C\C=C2\C(=O)N(C)C(=S)N2C)Sc2ccccc21 | 1 | 14 | 101 | 97
CCc1cc(=S)n2c([nH]c3ccccc32)c1C#N | -14 | 21 | . | .
COc1ccccc1Nc1nnc(SCc2ncc(-c3ccccc3)o2)s1 | -29 | 6 | 102 | 106
Cc1csc(=O)n1CC(=O)Oc1ccc(Oc2ccccc2)cc1 | -10 | 20 | . | .
COc1cccc(-c2nn(Cc3ccccc3)cc2CO)c1 | -25 | -6 | 106 | 111
CCc1nc2sc3c(O)cc(=O)[nH]c3c2cc1C | -84 | -62 | 99 | 100
CC(=O)N1C(=S)NC(=O)/C1=C\c1c(Cl)cccc1Cl | -6 | 5 | 103 | 106
CN(CC(=O)N1CCCCC1)S(=O)(=O)c1ccc2c(c1)CCCC(=O)N2 | -22 | -12 | 101 | 102
Cc1cccc(CCNC(=O)c2cc(=O)[nH]c3ccc(Br)cc23)c1 | 0 | -10 | 102 | 104
CCOC(=O)c1ccc(N=C2S/C(=C\c3cc4c(cc3OC)OCO4)C(=O)N2C)cc1 | -26 | -7 | 100 | 102
N#CC(C#N)=CC1=C(N2CCCC2)CCCC1 | i | 57 | 101 | 105
O=C(O)CCCn1cc(NC(=O)c2cccs2)cn1 | -24 | -10 | 101 | 104
O=C(CN1CCCC1)N1N=C(c2cccs2)CC1c1cccs1 (configuration not stated) | 8 | 16 | 99 | 104
COc1cccc(C(=O)CN2C(=O)C(C)(C)Oc3ccc(C(=O)N4CCOCC4)cc32)c1 | -43 | 2 | 103 | 102
Cc1ccc(-c2nc(N)oc2-c2ccc(C)cc2)cc1 | . | 4 | 102 | 96
Cc1ccccc1OCCCC(=O)NCc1ccco1 | -41 | 0 | 102 | 99
COc1ccc(C(=O)Nc2ccc(-c3n[nH]c(=S)o3)cc2)cc1 | -22 | -120 | 103 | 107
O=S(=O)(c1ccccc1)N1CCC(Oc2ccc(-n3cnnn3)cc2)CC1 | 1 | -10 | 98 | 103
CCCCN(CCCC)CCC(O)c1cc2c(Cl)cc(Cl)cc2c2cc(C(F)(F)F)ccc12 (configuration not stated) | -2 | 3 | 100 | 99
CCOC(=O)c1cc(-c2csc(-c3ccc(Cl)cc3)n2)on1 | 8 | 22 | 100 | 105
CC(Sc1nnc(-c2ccncc2)n1C)c1ccccc1Cl (configuration not stated) | 1 | -2 | 100 | 109
O=C(CSc1ncn(-c2ccccc2)n1)c1ccc(Cl)cc1 | -26 | -11 | 104 | 104
O=C(CCSCc1cnn(-c2ccccc2)c1-n1cccc1)NCc1ccc(F)cc1 | -17 | -8 | 102 | 105
CCOc1cc(Br)c(N2C(=NC(C)=O)SC3CS(=O)(=O)CC32)cc1OCC (configuration not stated) | -10 | -17 | 100 | 103
O=C(O)CCc1nnc2n(Cc3ccccc3Cl)c(=O)c3ccccc3n12 | -25 | 1 | 100 | 101
CC(=O)N[C@H]1[C@H](Oc2nc3ccccc3o2)O[C@H](CO)[C@@H](O)[C@@H]1O | 11 | -1 | 101 | 103
CC1(C)CC(=O)C=C(NC(=O)Nc2ccccc2)C1 | 2 | -51 | 109 | 108
O=C(NCc1ccccc1)C1CCN(C(=O)N2CCOc3ccccc32)CC1 | 7 | -6 | 100 | 100
CC1CN(CCOc2ccccc2)CC(C)O1 (configuration not stated) | 4 | -6 | 100 | 103
CCOc1nc2c(c(-c3ccco3)c1C#N)Cc1ccccc1-2 | -18 | -3 | 111 | 118

A draw from above in order of heavy-atom count, lowest first.
SMILES | MenB inh | Mtb MbtI inh | Polio RdRp inh | Polio RdRp inh intensity
CCOc1nc2c(c(-c3ccco3)c1C#N)Cc1ccccc1-2 | -18 | -3 | 111 | 118
O=S(=O)(c1ccccc1)N1CCC(Oc2ccc(-n3cnnn3)cc2)CC1 | 1 | -10 | 98 | 103
O=C(NCc1ccccc1)C1CCN(C(=O)N2CCOc3ccccc32)CC1 | 7 | -6 | 100 | 100
O=C(CCSCc1cnn(-c2ccccc2)c1-n1cccc1)NCc1ccc(F)cc1 | -17 | -8 | 102 | 105
CCCCN(CCCC)CCC(O)c1cc2c(Cl)cc(Cl)cc2c2cc(C(F)(F)F)ccc12 (configuration not stated) | -2 | 3 | 100 | 99

The results go on.
SMILES | MenB inh | Mtb MbtI inh | Polio RdRp inh | Polio RdRp inh intensity
O=C(c1cccc(C(=O)N2CCc3ccccc32)c1)N1CCc2ccccc21 | -1 | -12 | 102 | 108
O=C1NC(c2ccccc2)C(C(=O)c2ccco2)=C1O (configuration not stated) | -31 | . | 107 | 110
FC(F)(F)COc1ccc(OCC(F)(F)F)c(-c2ccn[nH]2)c1 | -24 | -2 | 106 | 106
Cc1ccc(CS(=O)(=O)c2ccc(C(F)(F)F)cn2)cc1 | -17 | 3 | 102 | 103
O=C(Cc1ccc(S(=O)(=O)N2CCOCC2)s1)Nc1ccc2ccccc2c1 | -1 | -23 | 102 | 111
O=C(NCc1ccccc1)C1CCCN(C(=O)Nc2ccccc2)C1 (configuration not stated) | -49 | -6 | 105 | 99
CC(C)C1C(C#N)=C(N)OC2=C1C(=O)CC(C)(C)C2 (configuration not stated) | -13 | . | 104 | 100
CO/N=C1\CC(C)(C)Cc2c(-c3ccn(C(C)=O)n3)sc(SC)c21 | -8 | 17 | 99 | 94
COc1c2ccoc2nc2c(OC)c(OC(C)=O)ccc12 | -11 | -311 | 100 | 104
CCSc1nnc(NC(=O)C(Cc2ccccc2)NS(=O)(=O)c2cccc3nsnc23)s1 (configuration not stated) | -30 | -10 | 104 | 101
Cc1cnc(C(=O)Nc2ccc(OC(F)F)c(Cl)c2)cn1 | -5 | 5 | 98 | 99
